SARS PLpro yeast: blocks SARS-CoV papain-like protease in a yeast assay; S. cerevisiae expressing SARS-CoV PLpro, growth rescue; control for the full effect not named in the record; Potency, µM (series often up to 32.9 µM), inactives show at the top dose activity, positive = growth rescue; 330,000 compounds, 0.19% hits; AID 485353; active means well fitted rising curve with a large enough effect; inconclusive means small, poorly fitted or top-dose-only effect; inactive means no such curve, though single readings can be large or run the other way; further: 0% is about no effect; nearly all actives have a fitted effect of over 55% in size; growth read by luminescence after 48 h
RE007 growth inh: less growth of the S. pombe RE007 Vpr strain; S. pombe RE007 Vpr strain, BacTiter-Glo ATP luminescence, 24 h; control for the full effect not named in the record; Potency, µM (titrated, usually from 92.2 µM), for inactives: at the top dose activity change, negative = less growth; 360,000 compounds, 0.21% hits; AID 651644; active = well fitted falling curve with a large enough effect; inconclusive = small, poorly fitted or top-dose-only effect; inactive = no such curve, though single readings can be large or run the other way;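 further: on the % scale 0 is the no-effect control and ±100 the full control effect; nearly all actives have a fitted effect of over 50% in size; the assay follows cell death caused by Vpr and the record does not say whether a fall means rescue or toxicity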
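Fission yeast RE007 carrying one integrated HIV-1 vpr copy, seeded at OD 0.01 in PMG+AL medium with 23 nL pinned compound. Grown 24 h at 30 degrees; viability read by BacTiter-Glo luminescence after 5 min.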
Cruzain inh Det: cruzain (T. cruzi) inhibition with detergent | 200,000 compounds, 0.43% hits | Potency, µM, for inactives: max response, negative = inhibition, hits mostly inhibitors | purified cruzain, Z-FR-AMC fluorescence, 0.01% Triton | AID 1478 | P25779;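 further: plate controls were neutral wells for no effect and buffer without enzyme for full effect; nearly all actives have a fitted effect of over 40% in size; top concentration of the series not given in the record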
Target sequence (P25779 123-467 limits assumed): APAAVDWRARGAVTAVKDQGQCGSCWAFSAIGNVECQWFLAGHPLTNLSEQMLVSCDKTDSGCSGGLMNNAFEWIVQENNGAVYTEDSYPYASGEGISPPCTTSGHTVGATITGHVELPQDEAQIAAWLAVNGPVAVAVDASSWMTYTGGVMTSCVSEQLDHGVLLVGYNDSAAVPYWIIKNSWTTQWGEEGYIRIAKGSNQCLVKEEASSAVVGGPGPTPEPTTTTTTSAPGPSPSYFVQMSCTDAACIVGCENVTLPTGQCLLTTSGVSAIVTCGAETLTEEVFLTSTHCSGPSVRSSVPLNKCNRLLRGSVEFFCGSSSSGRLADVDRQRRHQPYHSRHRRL
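Detergent-containing arm of a paired screen for aggregation-based inhibition: 0.01% Triton X-100 present. Cruzain at 1.5 nM cleaved 2 uM Z-FR-AMC at pH 5.5 with 5 mM DTT; AMC fluorescence gain over 60 s measured activity.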
2A StopGo: FMDV 2A StopGo reporter, luciferase signal | AID 1159524 | human cells with a luciferase reporter of 2A StopGo recoding; control for the full effect not named in the record | 410,000 compounds, 1.2% hits | Potency, µM (series often up to 57.9 µM), for inactives: at the highest dose signal change, negative = less light; active = well fitted falling curve with a large enough effect; inconclusive = small, poorly fitted or top-dose-only effect; inactive = no such curve, though single readings can be large or run the other way; tested in HEK293T cells; further: on the % scale 0 is the no-effect control and ±100 the full control effect; nearly all actives have a fitted effect of over 45% in size; luciferase light after 4 h
LASV entry inh: Lassa virus entry inhibition; 300,000 compounds, 1.2% hits; Lassa virus pseudotype entry inhibition, cell reporter; control for the full effect not named in the record; Potency, µM (doses to about 37.9 µM), inactives show at the highest dose activity change, negative = inhibition, actives largely listed as inhibitors; active means well fitted inhibition curve with a large enough effect; inconclusive means small, poorly fitted or top-dose-only effect, or effect the other way; inactive means flat fitted curve, though single readings scatter; tested in HEK293 cells; further: on the % scale 0 is the no-effect control and ±100 the full control effect; nearly all actives have a fitted effect of over 50% in size; luciferase read-out
Cruzain inh noDet: blocks cruzain activity in detergent-free assay | P25779 | purified cruzain, Z-FR-AMC fluorescence, no detergent | Potency, µM, for the others: max response, negative = inhibition, most hits filed as inhibitors | 200,000 compounds, 2.3% hits | AID 1476;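 further: plate controls were enzyme without inhibitor for no effect and buffer without enzyme for full effect; nearly all actives have a fitted effect of over 40% in size; top concentration of the series not given in the record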
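Detergent-free condition (0.00005% Triton X-100) in acetate buffer pH 5.5 with DTT. 1.5 nM enzyme and compound were pre-mixed 15 min, then 2 uM Z-FR-AMC substrate added; reaction progress from fluorescence change between first and third reads (60 s).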
NS1 inh: influenza NS1 inhibition. S. cerevisiae slowed by influenza A NS1, growth recovery by OD600. Potency, µM (titrated, usually from 46.1 µM), for inactives: at the highest dose activity, positive = more growth. 270,000 compounds, 0.4% hits. AID 2326; active means well fitted rising curve with a large enough effect; inconclusive means small, poorly fitted or top-dose-only effect; inactive means no such curve, though single readings can be large or run the other way; further: nearly all actives have a fitted effect of over 50% in size
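Compounds were scored for reversing the slow growth caused by influenza A NS1 in S. cerevisiae, measured by optical density at 600 nm. Assay medium contained 2% galactose at pH 6.0; NS1-free yeast of the same strain were the positive control.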
Marburg entry inh: blocks Marburg virus binding to or entry into cells; Marburg virus pseudotyped entry inhibition, cell reporter; control for the full effect not named in the record; about a third of the inactives were read at about 46 µM; Potency, µM (series often up to 37.8 µM), for the others: at the highest dose activity change, negative = inhibition, actives largely listed as inhibitors; 300,000 compounds, 1.8% hits; AID 540276; active = well fitted inhibition curve with a large enough effect; inconclusive = small, poorly fitted or top-dose-only effect, or effect the other way; inactive = flat fitted curve, though single readings scatter; tested in HEK293 cells; about a fifth of its hits are not listed in these tables; further: on the % scale 0 is the no-effect control and ±100 the full control effect; luciferase read-out
Starred values were filed as active, the others as inactive; ? = inconclusive; . = no result given; [ ] = another dose, or the depositor's remark. Unless noted, the call rests on the fitted dose curve; in most records, active means well fitted curve in the direction sought with a large enough effect; inconclusive means small, poorly fitted or top-dose-only effect, or another doubt; inactive means no such curve, though single readings can be large; an effect the other way counts as inactive or inconclusive. Potency means the concentration at half of the fitted maximal effect.

SMILES	SARS PLpro yeast	RE007 growth inh	Cruzain inh Det	2A StopGo	LASV entry inh	Cruzain inh noDet	NS1 inh	Marburg entry inh
CCOC(=O)N1CCC(NC(=O)CCC(=O)c2ccccc2)CC1	3%	0%	3.4%	-3%	6%	2%	-5%	5%
CCOC(=O)c1ccc(Nc2nc(C)cc(=O)[nH]2)cc1	11%	0%	-0.5%	.	-14%	-1%	6%	1%
Cn1c(CN2CCCCC2)nc2cc(NC(=O)c3ccc(F)cc3)ccc21	0%	23%	0.2%	?	?	4%	-7%	?
CCOc1cc(CNC(=O)CSc2n[nH]c(-c3ccccc3)n2)cc(OCC)c1OCC	.	.	-1.6%	-19%	-2%[46.1 µM]	?	.	.
CCCCCC/C=N/Nc1nnc(Cc2ccc(OC)c(OC)c2)c(=O)[nH]1	0%	30%	.	-26%	-20%[46.1 µM]	.	4%	-18%[46.1 µM]
CCN1CCN(C(C)CCc2ccccc2)CC1 (stereo unspecified)	2%	5%	.	4%	0%	.	2%	-6%
COC(=O)C1=C(C)N(CCc2ccc(OC)c(OC)c2)C(=O)/C1=C\N(C)C	-3%	-20%	0.4%	-23%	11%	?	-5%	0%[46.1 µM]
O=C(CCCOc1cccc(Br)c1)NC1CCC(O)CC1 (stereo unspecified)	-4%	-12%	.	0%	-4%	.	-4%	13%
Cc1cc(C(=O)CN2C(=O)NC(CC(C)C)C2=O)c(C)n1C1CC1 (stereo unspecified)	23%	0%	.	27%	1%[46.1 µM]	.	.	?
O=C(CCNS(=O)(=O)c1ccccc1C(F)(F)F)N1CCN(S(=O)(=O)c2cccc(Cl)c2)CC1	.	3%	.	-10%	0%	.	.	1%
CCOC(=O)c1cnc2nc(SC)nn2c1N	1%	2%	.	15%	2%	.	.	?
COc1ccc(CC(=O)N2CCN(c3ccccc3OC)CC2)cc1	0%	15%	.	-1%	-3%[46.1 µM]	.	1%	12%[46.1 µM]
O=c1[nH]cc(COCC(F)(F)C(F)(F)C(F)(F)F)c(=O)[nH]1	1%	-13%	.	-2%	11%[46.1 µM]	.	-5%	9%[46.1 µM]
CC(=O)c1cccc(NC(=O)/C(=C\c2ccco2)NC(=O)c2ccco2)c1	1%	28%	.	-15%	.	.	-12%	.
CCC(=O)Nc1ccc(C(=O)COC(=O)C(CCSC)NC(=O)COc2ccccc2)cc1 (stereo unspecified)	2%	4%	.	-8%	14%	.	.	10%
O=C(Oc1ccc(/C=N/Nc2nc(N3CCCCC3)nc(N3CCCCC3)n2)cc1)c1ccco1	1%	5%	.	14%	.	.	0%	.
COc1ccc(S(=O)(=O)N(C)CC(=O)Nc2ccccc2C(F)(F)F)cc1	4%	6%	-1.3%	3%	1%	-15%	7%	13%
CCOc1ccccc1N(CC(=O)Nc1ccccc1C(=O)OC)S(C)(=O)=O	3%	6%	2.0%	11%	-15%	-2%	-5%	-12%
Cn1ncc(S(=O)(=O)Cc2ccccc2)c(Cl)c1=O	0%	-20%	.	-68%	12%	.	-67%	2%[46.1 µM]
CCOc1cc(N2CCOCC2)c(OCC)cc1NC(=O)CCC1CCCC1	-4%	0%	-4.2%	-16%	?	?	-1%	?
CCC(c1nnnn1Cc1ccc(F)cc1)N1CCN(C)CC1 (stereo unspecified)	0%	-4%	.	-19%	23%[46.1 µM]	.	.	-11%[46.1 µM]
O=C(NCc1ccc(F)cc1)c1ccc(CS(=O)(=O)Cc2ccc(F)cc2)o1	4%	-3%	3.1%	?	-29%	2%	-4%	-24%
COc1ccc(NS(=O)(=O)c2cccc(-c3nnc4n3CCCCC4)c2)cc1	4%	6%	3.8%	-13%	-11%	10%	-3%	-5%
O=c1c(Cl)c(N2CCN(S(=O)(=O)c3ccccc3)CC2)cnn1-c1ccccc1	14%	15%	-0.6%	-9%	0%	-5%	-1%	19%
O=C(NC(=O)c1c(Cl)cccc1Cl)Nc1ccc(Oc2cccnc2)nc1	-1%	-4%	.	-10%	-5%	.	-9%	-9%

(continued)
SMILES	SARS PLpro yeast	RE007 growth inh	Cruzain inh Det	2A StopGo	LASV entry inh	Cruzain inh noDet	NS1 inh	Marburg entry inh
Oc1ccc(/C=N/n2c3ccccc3c3ccccc32)cc1	-33%	32µM*	0.3%	-22%	-11%	-4%	-4%	-4%
CCCOc1ccc(C(=O)Nc2cc(S(=O)(=O)N3CCOCC3)ccc2N2CCN(CC)CC2)cc1OC	.	4%	.	-4%	?	.	.	1%
Cc1cccc(N(C(=O)CCC(=O)Nc2ccccn2)C(C(=O)NC(C)C)c2ccc(F)cc2)c1 (stereo unspecified)	0%	-25%	.	20%	-13%[46.1 µM]	.	-27%	?
Cc1ccc([C@@H]2[C@@H]3C(=O)N(C)C(=O)[C@@H]3[C@]3(Cc4ccccc4)C(=O)N(Cc4ccccn4)CC(=O)N23)o1	-2%	4%	.	-2%	.	.	5%	.
Cc1cccc(NC(=O)c2cc3c(=O)n4cccc(C)c4nc3s2)c1C	.	.	-1.9%	-4%	-8%[46.1 µM]	2%	.	?
CC1CCCC(C)N1CC(O)COCC1COc2ccccc2O1 (stereo unspecified)	-16%	12%	10%	-21%	6%	-11%	-14%	?
Cc1cc(Cl)ccc1OCCCC(=O)OCC(=O)c1c(N)n(C)c(=O)n(C)c1=O	0%	4%	.	-18%	.	.	-2%	.
CN1CCN(C(=O)c2ccc3c(=O)n(CCc4ccccc4)c(=S)[nH]c3c2)CC1	.	6%	.	?	2%	.	-2%	-6%[46.1 µM]
Cc1ccc(C)c(NC(=O)COc2coc(CN3CCc4ccccc43)cc2=O)c1	-2%	-13%	.	-19%	2%	.	.	-19%
CCOc1ccc(-c2nc(-c3cccnc3)no2)cc1	-14%	-17%	-2.9%	-12%	10µM*	8%	-6%	5.6µM*
Cc1ccc2nc(N(CCN3CCOCC3)C(=O)CCS(=O)(=O)c3ccccc3)sc2c1	-2%	2%	.	40%[activator]	-17%	.	.	?
CCOC(=O)Nc1ccc2c(c1)N(C(=O)CN(C)C)c1ccccc1CC2	-2%	-11%[18.4 µM]	.	-27%	.	.	-1%	.
Cc1ccc(-c2csc3nc(C(C)C)oc(=O)c23)c(C)c1	0%	2%	.	-14%	.	.	0%	.
O=C1OCC2=C1C(c1ccc(F)cc1)c1cc3c(cc1N2)OCO3 (stereo unspecified)	-1%	-10%	.	?	.	.	.	.
CCc1c(C)nc2c(-c3ccccc3)c[nH]n2c1=O	5%	-19%	.	0%	2%[46.1 µM]	.	1%	?
O=C(c1cn(-c2ccccc2)nc1-c1cccs1)N1CCN(c2ccccc2)CC1	3%	17%	-2.4%	4%	-28%	-11%	1%	?
C=CCn1c(O)c(C=Nc2ccc(F)cc2)c(=O)[nH]c1=O	1%	17%	.	-2%	3%[46.1 µM]	.	3%	-7%[46.1 µM]
COc1ccc(CCC(=O)NNC(=O)c2cc(Cl)ccc2OC)cc1OC	-1%	8%	.	27%	-18%[46.1 µM]	.	-12%	-22%[46.1 µM]
COc1ccc(NC(=S)NNC(=O)Cn2nc(C(F)F)cc2C(F)F)cc1	11%	.	-0.2%	-8%	2%	-3%	5%	4%
CCN(CC)CCNCc1nc2ccccc2c(=O)n1-c1ccc(F)cc1	-15%	17%	-2.3%	-16%	-11%	-2%	-3%	5%
Cc1cccc(OC(=O)c2ccc3nccnc3c2)c1	-20%	8%	-2.4%	-8%	-4%	11%	-17%	0%
CCN1C(=O)c2ccccc2Sc2ccc(C(=O)NC(C)C)cc21	2%	7%	.	-8%	.	.	-1%	.
O=C1Nc2ccccc2/C1=N\c1sc2c(c1C(=O)Nc1ccccc1)CCCC2	-51%	16%[3.69 µM]	-4.4%	8%	-4%	?	4%	-2%
CN(Cc1ccccc1)S(=O)(=O)c1ccc(Cl)c(C(=O)NCc2ccc3c(c2)OCO3)c1	1%	11%	-4.5%	-6%	-12%	-2%	28%	5%
CN(C)C=Nc1ncc2c([nH]c3ccccc32)c1C#N	-12%	-18%	-11%	17%	-12%	-8%	-15%	-2%

Continued:
SMILES	SARS PLpro yeast	RE007 growth inh	Cruzain inh Det	2A StopGo	LASV entry inh	Cruzain inh noDet	NS1 inh	Marburg entry inh
CC(CC(=O)Nc1ccc(Cl)c(S(=O)(=O)N2CCOCC2)c1)c1ccccc1 (stereo unspecified)	-3%	4%	.	?	-44%	.	.	?
OC1(Cc2ccn[nH]2)CCCCC1	4%	-1%	1.9%	-5%	-1%	2%	0%	3%[46.1 µM]
Cc1[nH]c(C)c(S(=O)(=O)NCc2ccco2)c1C(=O)N1CCCCC1	4%	-1%	.	25%	2%[46.1 µM]	.	5%	19%[46.1 µM]
COc1ccc(Cl)cc1C(=O)NCc1ccco1	-6%	-5%	.	-19%	.	.	-29%	.
COc1cccc(OC)c1C(=O)Nc1cc(C)on1	5%	4%	2.6%	-20%	7%	2%	10%	6%
COc1ccc(Cn2ccnc2SCC(=O)Nc2ccc(C)cc2C)cc1	.	.	-1.5%	11%	?	-10%	.	.
CCCCC(CC)COP(=O)(OCC(CC)CCCC)OCC(CC)CCCC (stereo unspecified)	-6%	1%	1.5%	-14%	.	-7%	.	.
O=C(O)c1ccccc1CSc1ncn[nH]1	2%	-3%	-3.4%	8%	6%	1%	0%	26%
COc1ccc(NC(=O)c2c([N+](=O)[O-])c(C(C)(C)C)nn2C)cc1	0%	-2%	.	-8%	6%[46.1 µM]	.	-3%	-14%[46.1 µM]
CCC(C)(C)C1CCC(=NNC(=S)Nc2cccnc2)CC1 (stereo unspecified)	1%	1%	.	-15%	6%[46.1 µM]	.	.	2%[46.1 µM]
Cc1nnc(C)c2c(C)n(-c3ccc(Cl)c(N)c3)c(C)c12	-4%	-19%	.	-22%	-1%[46.1 µM]	.	2%	?
O=C(c1cc2cc(Cl)ccc2o1)N1CCCCCC1	8%	4%	.	30%	?	.	.	?
CS(=O)(=O)c1nc(-c2ccc(Br)cc2)cc(-c2ccccc2)c1C#N	6%	17%	-3.7%	?	5.8µM*	?	2%	?
CCc1nn(C(CC)C(=O)NCC(C)c2ccccc2)c(=O)c2cc3occc3n12 (stereo unspecified)	-5%	23%	.	-2%	-17%[46.1 µM]	.	-8%	?

High-throughput results deposited in PubChem by National Center for Advancing Translational Sciences (NCATS).
